# LANA-nucl inh: LANA-nucleosome interaction inhibition. FITC-LANA1-23 / chicken nucleosome fluorescence polarization; stronger effect = lower value. z-score (no concentration beside the values). actives 0.3% (n = 51,000). AID 720717;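 active = both repeat wells score below -2 in polarization z-score versus plate sample wells, excluding overly bright wells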;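 note: 100 nL library stock added to about 30 µL; numbers are from one replicate; some results filed as inactive read as strong as hits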
#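 Assay system: purified chicken nucleosomes with FITC-labelled LANA N-terminal peptide (1-23) / Probe or stimulus: 50 nM FITC-LANA1-23 probe / Compound dosing: pin-transferred compound, 100 nL / Times: compound with peptide–nucleosome mix 10–45 min at room temperature / Technique: fluorescence polarization, 480 nm excitation, 535 nm parallel and perpendicular emission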
# BasE inh: BasE siderophore biosynthesis inhibition. actives 0.1% (n = 84,000). AID 485350. inhibition, % (test concentration not listed). purified BasE, fluorescence polarization binding displacement;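 active = both replicates above 25% with normal brightness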;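 note: 0% = negative plate control signal and 100% = positive plate control signal; stock transfer was 100 nL into about 30 µL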
# * hit, by the source's call; . = no result given; & = joins results of further samples; ! = repeats disagree.
# Sequence of screens: LANA-nucl inh	BasE inh
CN1CCc2c(n(CC(O)CN(CCO)CCO)c3ccccc23)C1=O (stereo not given)
    -0.71	-1.4
COc1ccccc1OCC#CCn1cnc2ccccc2c1=O
    0.2	2.4
Cc1cc(C)c2c(n1)sc1c(=O)n(C)cnc12
    0.22	1.1
CCC(CC)C(=O)Nc1ccccc1Cl
    0.22	0.3
O=C(CSc1nnc2ccccn12)Nc1ccc(S(=O)(=O)N2CCCCC2)cc1
    .	0.1
Cc1nnc(SC(C)C(=O)Nc2ccc3c(c2)OCCO3)s1 (stereo not given)
    .	-0.4
CCCCN1Cc2c(nc3cc(C(C)(C)C)[nH]n3c2=O)C1=O
    .	0.7
O=C(O)c1ccc(-n2cccn2)cc1
    .	2.3
CCCC(=O)Nc1ccc(Cl)c(NC(=O)c2ccc(Br)o2)c1
    0.43	0.7
CCOC(=O)C12C(=O)OC(C)(C)C1C2(CC)C(=O)c1ccc(C)cc1 (stereo not given)
    -0.66	1.9
O=C(c1ccco1)N1CCN(Cc2cccc(Br)c2)CC1
    -0.25	3.4
CCN(CC)c1cccc(OC(=O)Nc2ccc(Cl)cc2)c1
    .	1.3
CC(C)N(Cc1ccccc1)S(=O)(=O)c1ccc(CNC(=O)c2ccc(Cl)cc2)s1
    0.2	.
Nc1nc(N2CCCC2)ncc1S(=O)(=O)c1ccc(C(F)(F)F)cn1
    .	-0.1
CCOc1ccccc1C(=O)N[C@H](C(=O)Nc1nccs1)C(C)C
    .	-1.9
CC(C)Cn1c(SCc2cn3ccsc3n2)nc2sc3c(c2c1=O)CCCC3
    .	0.6
C#C[C@]1(O)CCC2C3CCC4=C(CCC(=O)C4)C3CC[C@@]21C (stereo not given in full)
    -0.74&0.18	1.1
CCOc1ccc(CN(C)C(=O)[C@H](C)NC(=O)c2ccco2)cc1OC
    .	2.1
Cc1cc(C)c2nc(C(F)(F)F)nc(N3CCN(c4ccccc4F)CC3)c2c1
    -0.34	3.1
O=C(NCc1ccco1)C12CC3CC(CC(C3)C1)C2
    -1.1	0.0

# Record cards (already shown). Values in the order: LANA-nucl inh	BasE inh
# CC(C)Cn1c(SCc2cn3ccsc3n2)nc2sc3c(c2c1=O)CCCC3 as listed: .	0.6
# CCOC(=O)C12C(=O)OC(C)(C)C1C2(CC)C(=O)c1ccc(C)cc1 (stereo not given) as listed: -0.66	1.9

# Remaining list, next part.
# Sequence of screens: LANA-nucl inh	BasE inh
COc1ccc(N=C2SC(C(=O)Nc3ccccc3)CC(=O)N2C)cc1 (stereo not given)
    1.2	-2.5
Cn1c(=O)[nH]c(=O)c2c1nc1n2CCCN1c1ccccc1
    -1.1	2.0
CC(=O)N1CCN(c2ccc(Oc3nc(-c4ccccc4)nc4ccccc34)cc2)CC1
    .	3.1
Cc1ccc(S(=O)(=O)CCC(=O)N(Cc2nnc(-c3ccc(Cl)cc3)o2)C2CC2)cc1
    .	-1.4
CCOC(=O)CSc1nc2ccccc2n1Cc1ccccc1
    -1.3	-1.1
CCCN(Cc1nnc(-c2ccccc2Cl)o1)C(=O)Cc1coc2cc(C)c(C)cc12
    .	-1.9
Cc1ccc(S(=O)(=O)NCCN2CCNC2=O)cc1
    0.56	-0.4
Cc1cccc2sc(NC(=O)[C@@H]3CCCN3C(=O)c3cccs3)nc12
    .	2.2
CCn1c(SCC(=O)N2CCC(C)CC2)nc2c(c1=O)SCC2
    -0.11	1.3
Cc1occc1-c1nnc(SCc2nc3ccccc3s2)n1Cc1ccccc1
    .	-7.8
Cc1cc(C)n(-c2ccc(C(=O)OCc3nc4ccccc4c(=O)n3CC#N)cc2)n1
    .	-3.9
COC(=O)c1cc(C2CC2)nc2c1c(C)nn2-c1ccccc1
    -1.2	1.5
O=S(=O)(/C=C/c1ccccc1)N1CCN(CCc2ccncc2)CC1
    .	1.4
CCC(C)(C)NS(=O)(=O)c1ccc(Cl)cc1F
    .	0.8
CCc1nc2c([nH]1)c(=O)n(C)c(=O)n2C
    0.62	0.9
Fc1ccc(Cn2ccnc2-c2ccc(C(F)(F)F)cc2)cc1
    .	-2.0
O=C1NC(=S)S/C1=C\c1c(NCCO)nc2ccccn2c1=O
    1.9	-8.3
O=C(NCc1ccccc1)C1CCN(C(=O)NCc2ccccc2)CC1
    -1.2	1.0
O=C(NCc1nnc(SCC(=O)N2CCOCC2)o1)c1ccccc1
    -0.8	1.6
Cc1cccc2cc(CN(Cc3ccccc3)C(=O)c3ccco3)c(=O)[nH]c12
    -0.69	2.7
COc1ccc(OC)c(N(CC(=O)N2CCN(c3ccc(F)cc3)CC2)S(=O)(=O)c2ccc(OC)c(OC)c2)c1
    -0.94	0.1
CC(C)C(=O)OCC(=O)NN1C(=O)NC(C)(c2ccccc2)C1=O (stereo not given)
    .	2.3
Cc1cc(C(=O)CSc2n[nH]c(=O)n2C2CC2)c(C)n1-c1ccccc1
    .	0.4
O=c1oc2cc(Cl)c(O)c(Cl)c2s1
    0.45	2.7
CC(C)(C)c1nccc(-c2nn(-c3ccc(F)cc3)ccc2=O)n1
    .	1.7
COc1ccc2c(c1)n([O-])c1c([n+]2=O)CCC1
    .	-0.8
CC1CCCCN1S(=O)(=O)c1ccc(CN2C(=O)c3cccnc3C2=O)s1 (stereo not given)
    -0.14	0.9
CCOC(=O)c1cc(-c2ccc(N3CCOCC3)cc2)nn1-c1ccccc1
    .	0.5
CCOC(=O)/C=c1/nc2c([nH]c1=O)=NON2
    -0.0085	4.1
Clc1ccc(CN=C2Nc3ccccc3CS2)cc1
    -0.15	.
Fc1ccc(/C=C/c2cccc3ccccc23)cc1
    .	-0.6
COc1ccc(N2C(=O)c3ccccc3C2(O)c2ccccc2)cc1OC (stereo not given)
    0.87	-3.9
O=C1CC(c2csc(-c3ccccc3)n2)C2(CCCCC2)O1 (stereo not given)
    .	1.4
Cc1nc(CSc2ccccc2)cc(=O)[nH]1
    -0.52	.
CCOC(=O)c1ccc(NC(=O)C(CC)Sc2nc3ccccc3o2)cc1 (stereo not given)
    -1.1	0.9
c1ccc(Oc2ncnc3sc4c(c23)CCCC4)cc1
    .	0.0
COc1cc(C(c2nnnn2C2CCCCC2)N2CCc3ccccc3C2)ccc1O (stereo not given)
    1.6	-0.7
CNS(=O)(=O)c1cccc(C(=O)OCC(=O)Nc2ncc(Cl)cc2Cl)c1
    .	0.9
O=C(/C=C/c1ccc(O)c(O)c1)O[C@@H]1C[C@](O)(C(=O)O)C[C@@H](O)[C@H]1O
    0.071&0.23	32*!
NC(=O)C1CCCN1c1cnn(Cc2ccccc2)c(=O)c1Cl (stereo not given)
    .	-0.4
CCC1SC2=NC(C)=C(C(=O)OC)C(c3ccccc3Br)N2C1=O (stereo not given)
    .	1.7
COC(=O)c1sccc1NC(=O)CC#N
    0.036	-3.0
O=C(CSCc1cc(=O)n2ccsc2n1)Nc1ccccc1
    0.67	0.4
O=C(CNC(=O)c1ccc2c(c1)SC1=NS(=O)(=O)CCN12)Nc1cc(Cl)ccc1Cl
    .	1.8
CCc1ccc(CNCCCSc2nnnn2-c2ccccc2)cc1
    -0.45	-0.9
CCc1ccccc1NC(=O)C1CC(=O)N(C2CCCCC2)C1 (stereo not given)
    -0.94	1.2
O=C(CSc1ccccc1C(=O)NCC1CCCO1)Nc1ccc2c(c1)OCO2 (stereo not given)
    .	0.3
CCn1c(CC(=O)Nc2ccccc2)nnc1SCc1nc2ccccc2c(=O)[nH]1
    0.18	-0.9
Cc1ccc(-c2nnn(CC(=O)N3N=C4/C(=C/c5ccco5)CCCC4C3c3ccco3)n2)cc1 (stereo not given)
    .	1.2
O=C(Cc1ccccc1)N/N=C/C=C/c1ccco1
    -0.11	3.3
O=C(CO/N=C/c1ccccc1OC(F)F)N1CCN(c2ccccc2)CC1
    .	1.3
O=C1c2[nH]nc(-c3ccccc3O)c2C(c2ccccc2)N1CC1CCCO1 (stereo not given)
    2	-2.7
COc1ccc(NC(=S)NCCCN2CCN(C3CCCCC3)CC2)cc1
    0.31	-0.7
CNC(=O)c1c(C)nc(SCC(=O)NCc2ccc(OC)cc2)c(C#N)c1-c1ccco1
    .	0.3
CC(C)N(CCC#N)S(=O)(=O)c1ccccc1
    0.1	-1.2
c1coc(-c2cn3ccc4ccccc4c3n2)c1
    .	-0.8
N#CCc1c(C#N)c(N)nc(NNC(=O)c2ccc(Br)cc2)c1C#N
    .	1.3
CN(c1ccc(C(=O)N2CCCCC2)cc1)S(C)(=O)=O
    -1.4	1.4
CN(CC1CCCO1)S(=O)(=O)c1ccc(C(=O)Nc2ccc3c(c2)C(=O)NC3=O)cc1 (stereo not given)
    -0.86	0.5
COc1ccc(C2=NNC(=NC3CCCCC3)SC2)cc1
    .	1.2

# Carrying on:
# Sequence of screens: LANA-nucl inh	BasE inh
NC(=O)CCN1CCC(c2nc3ccccc3s2)CC1
    .	0.5
COc1cccc(CCN2CCC(CNS(=O)(=O)c3cc(-c4cc(C)no4)ccc3OC)CC2)c1
    .	-10
CCC1Oc2ccc(C)cc2N(CC(=O)N(Cc2ccc3c(c2)OCO3)CC2CCCO2)C1=O (stereo not given)
    -1.2	-0.9
c1ccc(Cc2[nH]nc3ccccc23)cc1
    -0.44	-1.7
Cc1ccc2c(c1)N(CC(=O)OCC(=O)NCc1ccccc1)C(=O)CO2
    -0.59	0.4
CC(C)NC(=O)NC1CCCCNC1=O (stereo not given)
    .	-1.1
CCN(CC)S(=O)(=O)c1ccc(NC2c3ccccc3C(=O)N2Cc2ccco2)cc1 (stereo not given)
    0.43	0.3
CC(NC(=O)c1cccc(C(=O)NC(C)c2ccccc2)c1)c1ccccc1 (stereo not given)
    .	0.7
C=CCOc1ccccc1CN(C(=O)c1c(C)noc1C)c1ccc2c(c1)OCCO2
    .	-0.1
CCn1c(CN2CCCCC2)nc2cc(S(=O)(=O)N(C)C)ccc21
    .	-0.5
CC(C)CC(N)C(O)C(F)(F)F (stereo not given)
    .	3.2
CCOc1ccc(C(=O)N2CCCCCC2)cc1
    -0.22	-2.4
Cc1ccc(Cn2nc(C)c3cc(C(=O)O)sc32)cc1
    .	0.5
N#C/C(=C/Nc1cccc(C(F)(F)F)c1)c1nc(-c2ccc3c(c2)OCO3)cs1
    .	2.9
O=C(NN=C1CCCCC1)C1CC1c1ccccc1 (stereo not given)
    2.5	1.2
CCOC(=O)c1cnc(N2CCCC2)nc1C1CCNCC1
    0.82	-2.1
[C-]#[N+]c1cc(-c2ccncc2)c(C)[nH]c1=O
    0.042	0.5
COC(=O)c1cccc(CSc2nnc(-c3ccccc3OC)n2N)c1
    .	-1.2
Cc1cnc(NC(=O)COc2ccccc2Cl)s1
    .	-1.3
COC(=O)Nc1cc(NC(=O)OC)cc(C(F)(F)C(F)(F)C(F)(F)F)c1
    0.47	-1.6

# Reprinted from the listing for reference:
# Sequence of screens: LANA-nucl inh	BasE inh
CN1CCc2c(n(CC(O)CN(CCO)CCO)c3ccccc23)C1=O (stereo not given)
    -0.71	-1.4
COc1ccccc1OCC#CCn1cnc2ccccc2c1=O
    0.2	2.4
Cc1cc(C)c2c(n1)sc1c(=O)n(C)cnc12
    0.22	1.1
CCC(CC)C(=O)Nc1ccccc1Cl
    0.22	0.3
O=C(CSc1nnc2ccccn12)Nc1ccc(S(=O)(=O)N2CCCCC2)cc1
    .	0.1

# New compounds follow:
# Sequence of screens: LANA-nucl inh	BasE inh
CCOC(=O)N1CCC(N2CCc3c([nH]c4ccccc34)C2)CC1
    -1.3	1.7
C#CCn1c(O)c(N=NC(=O)c2cc(Cl)ccc2O)c2ccccc21
    -0.34	5.4
Cc1ccc2c(c1)c1c(n2CC(O)CNCc2ccco2)C(=O)CCC1 (stereo not given)
    2.3	-1.9
CC1CCN(C(=O)COC(=O)Cc2ccc(Br)cc2)CC1
    .	1.4
CS(=O)(=O)c1ccc(C(=O)NCc2ccccc2)cc1
    .	0.8
N#CCCn1cc(/C=C/C(=O)N2CCN(c3ncc(C(F)(F)F)cc3Cl)CC2)c2ccccc21
    .	2.2
N#Cc1ccc(N2CCN(C(=O)C34CC5CC(CC(C5)C3)C4)CC2)c(F)c1
    0.66	0.2
CCCSc1nc(C2CC2)nc2c1c(=O)n(C)c(=O)n2CCC
    .	1.0
CC(C)CN(CC(C)C)S(=O)(=O)c1ccc2c(c1)CCCC(=O)N2
    .	0.3
COc1ccc(-c2noc(CN3CCC(Cc4ccccc4)CC3)n2)cc1
    0.38	-0.1
CN(Cc1ccccc1Cl)C(=O)c1cnccc1C(F)(F)F
    -0.66	.
CCOC(=O)c1ccc(NC(=O)c2cc3cccnc3n(C)c2=O)cc1
    0.14	0.0
C/C(CCc1ccccc1)=N/NC(=O)c1ccc(O)cc1
    0.2	3.1
CCC1(C)Cc2ccccc2-c2nc3n(c(=O)c21)CC(O)CS3 (stereo not given)
    0.11	4.0
COc1ccc(C2(C(=O)Nc3ccc(C)cc3)CCCC2)cc1OC
    .	3.1
CSc1nc(N)c2ccccc2n1
    -0.37	4.0
CCC(Sc1nncn2c1cc1occc12)C(=O)Nc1ccc(OC)c(Cl)c1 (stereo not given)
    3.5	-10
Cn1c(O)c(C=NCc2ccc3c(c2)OCO3)c(=O)[nH]c1=S
    0.54	-3.2
CCc1ccc(NC(=O)c2cc(C(C)C)on2)cc1
    -0.29	1.9
COc1ccc(CC(=O)Nc2cc3[nH]c(=O)[nH]c3cc2C)cc1OC
    -0.22	2.2

# These rows are one share of the data; the hit share may differ from the screen's.
